Menin MLL FP FL: displaces fluorescein MLL peptide from human menin. AID 1766. 290,000 tested, under 10 active. FP activity change, % at 61.4 µM. Fluorescence polarization, fluorescein-MLL peptide displacement from menin; inconclusive = falling polarisation curve, or a change in total fluorescence; inactive = total fluorescence flat and polarisation flat or rising; no compound was filed as active; the % refers to the polarisation; negative = inhibition;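 further: % of control where 0% means no effect; inhibitors lower the polarisation; unlabelled MLL peptide was the positive control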
Sfp PPTase inh: Sfp phosphopantetheinyl transferase inhibition; Q9F4F7; Biochemical Sfp PPTase activity, qHTS; Potency, µM, for inactives: max response, negative = inhibition, usual class: inhibitors; actives 3.5% (n = 310,000); active means well fitted inhibition curve with a large enough effect; inconclusive means small, poorly fitted or top-dose-only effect, or another doubt; inactive means no such curve, though single readings can be large or run the other way;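 further: the enzyme is Sfp with the accession as filed and its product quenches rhodamine fluorescence; potency means the concentration at half of the fitted maximal effect; 0% = enzyme reaction without inhibitor and -100% = no enzyme wells; top concentration of the series not given in the record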
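Fluorescence-quenching assay with 15 nM Sfp, 5 uM rhodamine-CoA and 12.5 uM BHQ-2-labelled ybbR peptide in pH 7.6 Hepes/MgCl2 buffer. Enzyme was pre-incubated with compound for 15 min at room temperature. Rate was taken from the 30-min fluorescence change (525/598 nm).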
Numbers without * were called inactive; ? = inconclusive; & = joins results of further samples; [ ] = remark or other dose. These rows are one share of the data; the hit share may differ from the screen's.

SMILES	Menin MLL FP FL	Sfp PPTase inh
CN(C)C(=O)c1ccc(-c2ccc3ncnc(Nc4ccccc4)c3c2)cc1	-2.5	9.3%
COc1ccc(OC)c(-c2nnc3n2N=C(c2ccc(OC)c(OC)c2)CS3)c1	0.7	33.3%[activator]
CN(C)c1ccc(-c2nc(-n3ccnc3)c3ccccc3n2)cc1	?	-3.2%
CC(C)[C@@H](OCc1ccccc1)[C@H](C)/C=N\OC[C@@H](O)[C@@H]1O[C@@H]2OC(C)(C)O[C@@H]2[C@H]1O	-0.5[11.7 µM]	-2.2%
C=CC[C@@H]1C=C[C@H](ON=C(C)C)[C@H](CO)O1	0.1[11.7 µM]	-5.9%
CC[C@H](C)[C@H](NC(=O)[C@H](C)NC(=O)[C@@H](N)C(C)C)C(=O)N[C@H](C(=O)N[C@H](C(=O)N[C@@H](CC(C)C)C(=O)N[C@H](C(=O)N[C@@H](CCCCN)C(=O)O)C(C)C)C(C)C)[C@@H](C)O	-2.2	-2.1%
CCCCCC(=O)/C=C/[C@@H]1[C@@H](C/C=C\CCCC(=O)O)[C@@H](O)C[C@H]1O	-5.7	-4.3%
COc1ccc(-c2nc3cnc(N4CCOCC4)nc3n(CCc3ccccc3)c2=O)cc1	?	16.5%
COc1ccc(-n2c(=O)c(-c3cc(F)cc(F)c3)nc3cnc(N4CCOCC4)nc32)cc1	-23.5	-8.1%
COC(=O)CCCC1=CC2=CC(=O)C(C)(OC(=O)c3ccc(Cl)nc3)C(=O)C2=CO1 (centres undefined)	-0.5	28.1%
Cc1noc(C)c1-c1ccc2ncnc(NC3CC3)c2c1	7.1	-13.5%
O=C(NC(NC(=S)Nc1ccc(F)c([N+](=O)[O-])c1)C(Cl)(Cl)Cl)C(c1ccccc1)c1ccccc1 (centres undefined)	-1.9&-0.9	11.1%&-16.1%
CN(C)Cc1ccccc1-c1nc(NCc2cccs2)c2ccccc2n1	1.7	7.3%
CCOC(=O)C1=C[C@@]2(CC)CCCN3CCc4c(n1c1ccccc41)[C@H]32	177.6[activator]	-34.5%&3.3%
Cc1cccc(CNc2nc(-c3ccoc3)nc3ccccc23)c1	?	-20.8%
O=C(c1csnn1)N1CCC[C@@]2(CCN(c3cccc(-c4ccccc4)c3)C2)C1	6.3	?
COC(=O)N[C@@H](c1cccc(C)c1)C(C(C)=O)C(=O)OC (some centres undefined)	1.2	-6.7%
CCCCC1=CC2=CC(=O)C(C)(OC(=O)c3ccc(Cl)nc3)C(=O)C2=CO1 (centres undefined)	?	15.4%
CN1CCc2cc3c(cc2[C@@H]1[C@@H]1C(=O)Oc2c1ccc1c2OCO1)OCO3	-3.2	5.2%
CC1CCC2C(=O)OC(CO)CN2C1c1ccc(Br)cc1 (centres undefined)	-4.5[11.7 µM]	-13.1%
COc1ccc(COC(=O)N/N=C2/C[C@@H](O)[C@@H](O)[C@@H]3[C@@H]4C(=O)N([C@@H](C)c5ccccc5)C(=O)[C@H]4CC[C@H]23)cc1	-1.5[11.7 µM]	12.8%
C=C[C@@H](C)[C@](C)(O)c1ccccc1	-0.1	-11.3%
C[N+]1(C)C[C@@H](O)C[C@@H]1C(=O)[O-]	-4.3[24.8 µM]	-3.2%
O=c1c(-c2cccs2)nc2cnc(N3CCNCC3)nc2n1Cc1cccs1	?	17.8µM*
O=S1(=O)C2CC3OC2(CC3c2ccc(F)cc2)CN1Cc1ccc(Cl)cc1 (centres undefined)	4.3	16.9%
COC(=O)N[C@H](C[N+](=O)[O-])C(C)(C)C	2.0	-14.5%
Nc1nc2nc(Cl)[nH]c2c(=O)[nH]1	-7.2	-9.0%
COc1cccc(CC(=O)N2CCc3nc(-c4ccc(OC)cc4C)c4c(c3C2)CO[C@@H](c2ccccc2)C4)c1	-0.5[11.7 µM]	-11.5%
CC(=O)N1CCC2(CC1)CN(Cc1cc(C(F)(F)F)cc(C(F)(F)F)c1)C2	-0.9	-0.9%
COc1ccccc1CNc1ncnc2ccc(-c3ccoc3)cc12	13.9	-0.5%
COc1ccc(Oc2ncc3nc(-c4cccs4)c(=O)n(-c4ccccc4)c3n2)cc1	?	-5.0%
COc1ccc(-c2nc3cnc(Nc4cccc(OC)c4)nc3n(Cc3cccs3)c2=O)cc1	?	19.3%
COc1ccccc1-c1cncnc1NCCc1cnc[nH]1	-11.1	0.9%
CCCCC/C=C\C/C=C\C/C=C\C/C=C\CCCC(=O)O[C@@H](CO)COCCCCCCCCCCCCCCCC	-0.4	13.7%&-11.3%
O=C1c2ccccc2C(=O)c2c(O)ccc(O)c21	?	?
COc1cccc(-c2cncnc2NCCN2CCOCC2)c1	-1.9	-7.0%
O=c1c(-c2cccc(Cl)c2)nc2cncnc2n1-c1ccccc1	1.2	8.1%
CCC1=C(OC(=O)N(CC)CC)N2C(=O)OC(=NCCOC)[C@]2(C)[C@H]2C1=CC[C@H]1C(=O)N(CC(=O)OC)C(=O)[C@H]12	?	5.2%
COCCNc1cc(-c2c(C)noc2C)ncn1	-1.7	9.1%
O=C(O)Cc1cccc(OCCCN(Cc2cccc(C(F)(F)F)c2Cl)CC(c2ccccc2)c2ccccc2)c1	-14.8	44.7µM*
Cc1cnc(CNc2ncncc2-c2ccc(N(C)C)cc2)cn1	-3.8	79.4µM*
N#CCCn1c(=O)c(-c2cccs2)nc2cnc(OCc3ccccc3)nc21	-6.3	-5.0%
C=CCC(C)(O)c1ccco1 (centres undefined)	-0.7	7.1%
CC[C@H](C)C(=O)O[C@@H]1C[C@H](C)C=C2C=C[C@H](C)[C@@H](CC[C@H]3C[C@@H](O)CC(=O)O3)[C@H]21	4.1[24.8 µM]	12.4%
Cc1ccc(NC(=O)c2cc3c(=O)oc4ccc(C)cc4c3s2)nc1	4.3	7.9%
COc1ccc(C(=O)N2CCC[C@@]3(CCN(C(=O)Nc4cccc(F)c4)C3)C2)cc1	-5.0	25.0%
CCOC(=O)N1CCCN(/[N+]([O-])=N/Oc2ccc([N+](=O)[O-])cc2[N+](=O)[O-])CC1	-8.7	-5.2%
O=S(=O)(c1ccccc1)N1CCC2(CCCN(Cc3ccccc3)C2)CC1	-5.5	5.9%
CCCn1c(C)nc2c(NCCN3CCCCC3)nc(C)nc21	2.8	36.8%[activator]
N#Cc1cccc(-c2cncnc2NCc2cccnc2)c1	2.3	-1.6%

Structures from the list above that contain fluorine, in the order listed:
SMILES	Menin MLL FP FL	Sfp PPTase inh
COc1ccc(-n2c(=O)c(-c3cc(F)cc(F)c3)nc3cnc(N4CCOCC4)nc32)cc1	-23.5	-8.1%
O=C(NC(NC(=S)Nc1ccc(F)c([N+](=O)[O-])c1)C(Cl)(Cl)Cl)C(c1ccccc1)c1ccccc1 (centres undefined)	-1.9&-0.9	11.1%&-16.1%
O=S1(=O)C2CC3OC2(CC3c2ccc(F)cc2)CN1Cc1ccc(Cl)cc1 (centres undefined)	4.3	16.9%
CC(=O)N1CCC2(CC1)CN(Cc1cc(C(F)(F)F)cc(C(F)(F)F)c1)C2	-0.9	-0.9%
O=C(O)Cc1cccc(OCCCN(Cc2cccc(C(F)(F)F)c2Cl)CC(c2ccccc2)c2ccccc2)c1	-14.8	44.7µM*
COc1ccc(C(=O)N2CCC[C@@]3(CCN(C(=O)Nc4cccc(F)c4)C3)C2)cc1	-5.0	25.0%

Remaining list, next part
SMILES	Menin MLL FP FL	Sfp PPTase inh
COc1cccc([C@@H]2Oc3ccc(OC)cc3/C(=N/O[C@@H](C)CN3CCCCc4nc(C)c(C)cc43)[C@@H]2O)c1	?	21.2%
COc1ccc(-c2cc(=O)c3c(O)cc(O[C@@H]4OC(COC5OC(C)C(O)C(O)[C@@H]5O)C(O)C(O)C4O)cc3o2)cc1 (some centres undefined)	2.1	3.0%
CC[C@@H](C(=O)[C@@H](C)[C@@H](O)[C@H](C)CCc1ccc(C)c(O)c1C(=O)O)C1O[C@](CC)(C2CC[C@](O)(CC)[C@H](C)O2)C[C@@H]1C (some centres undefined)	2.1	0.5%
COc1cccc(Nc2ncc3nc(CCc4ccccc4)c(=O)n(C[C@H]4CCCO4)c3n2)c1	?	7.1%
O=c1c(-c2ccc(F)cc2)nc2cnc(N3CCNCC3)nc2n1C1CC1	-9.3	3.6%
CC(=O)OC[C@@H]1O[C@H](C/C=N\OC[C@@H](C)[C@H](OCc2ccccc2)C(C)C)C=C[C@@H]1OC(C)=O	0.2[11.7 µM]	-2.2%
Cn1c(=O)c(CCc2ccccc2)nc2cnc(OCc3ccccc3)nc21	-7.3	-8.6%
CCCCCC(=O)/C=C/C=C\C/C=C\C/C=C\CCCC(=O)O	4.7	5.2%&5.4%
Cc1cccc([C@H]2[C@@H]3C=CC(C)C[C@@H]3C(=O)N2Cc2ccccc2)c1 (some centres undefined)	-5.2[94.6 µM]	-20.6%
O=C1CCCC=C1[C@H](CCc1ccccc1)OC(=O)c1ccc(Br)cc1	-4.2[11.7 µM]	-19.8%
Cn1c(=O)c(-c2ccccc2)nc2cnc(N3CCOCC3)nc21	-6.9	-6.7%
Cc1c(F)c(N2CCNC(C)C2)cc2c1c(=O)c(C(=O)O)cn2C1CC1 (centres undefined)	-0.3	16.3%
O=C1[C@H]2O[C@@H]2[C@@H](O)[C@H]2[C@H]1CCn1c(=O)n(Cc3cc4c(cc3Cl)OCO4)c(=O)n12	9.0[11.7 µM]	9.6%
Cc1nc2cnc(N3CCNCC3)nc2n(C2CC2)c1=O	8.1	11.4%
C[C@@H](CCCCC(=O)Nc1ccc(C(F)(F)F)cc1)NCCc1cnc[nH]1	?	14.1%
CC1Nc2ccc(Cl)cc2S(=O)(=O)N1 (centres undefined)	0.9	1.7%
CCNc1ncc2nc(-c3cccs3)c(=O)n(CCC#N)c2n1	?	-5.0%
CSCC[C@H](NC(=O)[C@@H]1CCCN1C(=O)[C@H](CCCN=C(N)N)NC(=O)[C@H](CC(C)C)NC(=O)[C@@H]1CCCN1C(=O)[C@@H](NC(=O)[C@@H](N)CCC(N)=O)C(C)C)C(=O)N[C@H](C(=O)N[C@@H](Cc1ccc(O)cc1)C(=O)N[C@@H](CCCCN)C(=O)O)[C@@H](C)O	-6.3	4.8%
Cc1ccc(F)c(C2C3C=CCCC3(C)C(=O)N2Cc2ccccc2)c1 (centres undefined)	-1.5	28.2µM*
CCCCC[C@H](O)/C=C/[C@H]1OC(O)C[C@H](O)[C@@H]1C/C=C\CCCC(=O)O (some centres undefined)	-14.9	-4.3%

Copied from the listing (5 entries):
SMILES	Menin MLL FP FL	Sfp PPTase inh
Cc1cnc(CNc2ncncc2-c2ccc(N(C)C)cc2)cn1	-3.8	79.4µM*
N#CCCn1c(=O)c(-c2cccs2)nc2cnc(OCc3ccccc3)nc21	-6.3	-5.0%
C=CCC(C)(O)c1ccco1 (centres undefined)	-0.7	7.1%
CC[C@H](C)C(=O)O[C@@H]1C[C@H](C)C=C2C=C[C@H](C)[C@@H](CC[C@H]3C[C@@H](O)CC(=O)O3)[C@H]21	4.1[24.8 µM]	12.4%
Cc1ccc(NC(=O)c2cc3c(=O)oc4ccc(C)cc4c3s2)nc1	4.3	7.9%

Further compounds.
SMILES	Menin MLL FP FL	Sfp PPTase inh
CC(=O)O[C@H]1C2=C(C(=O)[C@H]3O[C@@H]31)[C@@H]1[C@@H]3[C@@H](C)OC=C4[C@H](O)[C@H]5O[C@@H]5C(=O)[C@]43C2O[C@H]1C	-1.3[11.7 µM]	22.0%
CC1(O)C(=O)C=C2C=C3CCCN3C=C2C1=O (centres undefined)	-27.6[11.7 µM]	-9.3%
C[C@H]1C[C@@H]2[C@@H]([C@@H](O)C[C@@]3(C)[C@H]2CC[C@]3(O)C(=O)CO)[C@@]2(C)C=CC(=O)C=C12	-1.0[24.8 µM]	12.7%
COc1c(C)c2c(c(O)c1CC=C(C)CCC(=O)OCCN1CCOCC1)C(=O)OC2	-0.2	4.4%
CO[C@H]1COC(=O)C/C=C\[C@H](C)[C@H](OC)COC(=O)[C@@H](C)NC(=O)C/C=C\[C@@H]1C	-2.7[11.7 µM]	13.0%
CCC/C=C(\CCC)C(NC(=O)c1ccc(C(F)(F)F)cc1)c1ccccc1 (centres undefined)	-4.2	18.3%
CCOc1cccc(C(=O)c2ccc(O)c(O)c2O)c1	?	-79.1%
COc1cc(C(CCN2CCCC2)c2c(OC)cc(OC)c3c2OC(=O)CC3c2ccc(N(C)C)cc2)cc(OC)c1OC (centres undefined)	4.8	-4.0%
COC(=O)C1=C(C)N(Cc2ccccc2)C2=C(C(C)=O)C[C@@](O)(C(=O)OC)C(=O)N2C1c1ccccc1 (some centres undefined)	1.0&0.1[11.7 µM]	-5.8%&7.3%

Screening results deposited in PubChem BioAssay by National Center for Advancing Translational Sciences (NCATS).
